Source: PubChem BioAssay
Ecoli rRNA inh – selective bacterial rRNA inhibition in E. coli | E. coli WT GFP vs humanized-ribosome RFP mutants, fluorescence, 24 h; hits give low values; DMSO median 0, no signal -100 | GFP signal change (wild-type ribosome), % (test concentration not listed) | 350,000 tested, 1.6% active | AID 720706;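 active = significant combined selectivity score with lowered wild-type GFP, culture density cut under 30%, mutant RFP and density less affected; inactive = any of these conditions unmet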; also: one replicate is shown; some compounds called inactive have numbers as strong as hits
Ecoli rRNA inh OD600 – second read-out of Ecoli rRNA inh, no call of its own (marks repeat the call); OD600 change, %; measured here: OD600 growth;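 optical density of the mix in the first replicate; 0 = DMSO median and -100 = no signal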
Ecoli rRNA inh RFP – also measured in Ecoli rRNA inh; calls as there; RFP signal change, %; measured here: RFP humanized mutant strains;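 first replicate; 0 = DMSO median and -100 = no signal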
Active calls of the source: *; & = joins results of further samples. These rows are one share of the data, so the mix of outcomes need not match the whole.

SMILES	Ecoli rRNA inh	Ecoli rRNA inh OD600	Ecoli rRNA inh RFP
COc1ccc2c3c([nH]c2c1)[C@@H](CO)N(C(=O)C1CCCC1)CC31CCN(S(C)(=O)=O)CC1	-2	6	-1.8
CC(C)[C@@H](C)/C=C/[C@@H](C)[C@H]1CC[C@@H]2[C@]1(C)CCC1[C@]23C=C[C@]2(C[C@@H](O)CC[C@]12C)N(c1ccc([N+](=O)[O-])cn1)O3 (stereo partly specified)	15	20	-5.0
CC(C)(C)OC(=O)N1CCN(C(c2ccnc3ccccc23)c2nnnn2-c2ccc3c(c2)OCCO3)CC1 (stereo unspecified)	2	3	-2.3
COc1ccc(NC(=O)Nc2ccc3c(c2)C(=O)N([C@@H](C)CO)C[C@@H](C)[C@H](CN(C)S(=O)(=O)c2ccc(C)cc2)OCCCC[C@@H](C)O3)cc1	-2	3	-1.8
CC(=O)N(C)C[C@H]1Oc2cc(C#Cc3ccncc3)ccc2S(=O)(=O)N([C@H](C)CO)C[C@H]1C	2	-4	0.0
C[C@H](CO)N1C[C@H](C)[C@H](CN(C)C(=O)Nc2ccc(C(F)(F)F)cc2)Oc2c(NC(=O)c3ccc(-c4nccs4)cc3)cccc2C1=O	-1	-7	0.0
C[C@H]1CN([C@@H](C)CO)C(=O)c2cc(C#CC(C)(C)O)cnc2O[C@H]1CN(C)Cc1cccc(F)c1	0	2	-0.6
CO[C@@H]1CC[C@H]2CCN(C)C(=O)C[C@@H](c3ccccc3)CN(C)C(=O)c3cc(C#N)ccc3OC[C@@H]1O2	4	6	-3.8
Cc1noc(C)c1NC(=O)N(C)C[C@@H]1Oc2ncc(/C=C/c3ccccc3)cc2C(=O)N([C@@H](C)CO)C[C@H]1C	4	-6	-1.8
Cc1ccc(CN2CCC(C)(Oc3cccc(Cl)c3)C2)cc1 (stereo unspecified)	-25	-31	-11
COc1cccc(OCC(=O)NCCS(=O)(=O)N2CCN(c3ccccc3)CC2)c1	8	5	3.4
C[C@H](CO)N1C[C@H](C)[C@@H](CN(C)Cc2ccc(C(F)(F)F)cc2)Oc2ccc(NC(=O)Nc3ccccc3)cc2C1=O	-1	-21	7.5
CS(=O)(=O)N1[C@H](CO)[C@@H](c2ccccc2-c2ccc(F)cc2)[C@@H]1C#N	-5	3	-1.2
COc1cccc(-c2ccc([C@@H]3[C@H](CO)N4CCCCN(S(=O)(=O)c5cccs5)C[C@@H]34)cc2)c1	-46*	-33*	1.6*
C[C@@H]1CN([C@H](C)CO)C(=O)c2cc(NS(C)(=O)=O)ccc2O[C@H]1CN(C)C(=O)Nc1cccc2ccccc12	3	11	2.4
CC=CCn1c(SCc2ccccc2)nc2c1c(=O)[nH]c(=O)n2C	-2	8	1.9
Cc1noc(C)c1NC(=O)N(C)C[C@H]1Oc2ccc(NC(=O)Cc3cn(C)c4ccccc34)cc2CC(=O)N([C@H](C)CO)C[C@H]1C	2	12	-0.4
CC(C)[C@@H]1C(=O)N[C@@H](c2ccc(F)cc2)CC=CC[C@@H](C)Oc2ccccc2C(=O)N1C (mixture of isomers)	-5	-20	-1.7
CC(=O)NC[C@H]1[C@@H](c2ccc(C3=CCCCC3)cc2)[C@@H](CO)N1C(=O)C1CC1	-3	0	-2.2
CC1(C(=O)NCc2ccccc2)CN(S(C)(=O)=O)CC(=O)N1CCCn1ccnc1 (stereo unspecified)	7	9	-5.5
COc1cccc(S(=O)(=O)N[C@@H]2CC[C@H](CCN)O[C@H]2CO)c1	1	4	-0.6
N#C[C@H]1[C@H](c2ccccc2C2=CCCC2)[C@@H](CO)N1C(=O)NC1CCCCC1	-28	-58	-9.0
O=C(NC1CCCCC1)N1CC2(C1)[C@H](c1ccccc1)[C@@H](CO)N2CC1CCOCC1	0	-1	-1.1
COc1ccc(S(=O)(=O)N2[C@@H]3CNC[C@H]2C3c2ccc(-c3ccccc3OC)cc2)cc1 (stereo partly specified)	-13&8	-36&-18	4.7&3.0
CC(=O)N(C)C[C@@H]1Oc2ncc(C#CC(C)(C)O)cc2C(=O)N([C@@H](C)CO)C[C@H]1C	12	12	-1.2

Profiles from above. Order of values: Ecoli rRNA inh | Ecoli rRNA inh OD600 | Ecoli rRNA inh RFP
`CO[C@@H]1CC[C@H]2CCN(C)C(=O)C[C@@H](c3ccccc3)CN(C)C(=O)c3cc(C#N)ccc3OC[C@@H]1O2` in the list: 4 | 6 | -3.8
`Cc1noc(C)c1NC(=O)N(C)C[C@H]1Oc2ccc(NC(=O)Cc3cn(C)c4ccccc34)cc2CC(=O)N([C@H](C)CO)C[C@H]1C` in the list: 2 | 12 | -0.4
`C[C@H](CO)N1C[C@H](C)[C@H](CN(C)C(=O)Nc2ccc(C(F)(F)F)cc2)Oc2c(NC(=O)c3ccc(-c4nccs4)cc3)cccc2C1=O` in the list: -1 | -7 | 0.0

Continued:
SMILES	Ecoli rRNA inh	Ecoli rRNA inh OD600	Ecoli rRNA inh RFP
C=CCNC(=O)CN1C(=O)CSc2ccc(S(=O)(=O)N3CCOCC3)cc21	19	22	-0.2
CCc1nc2ccc(C(=O)NCCCn3ccnc3)cn2c1N(CC)C(=O)NCCc1ccccc1	11	23	0.4
C[C@H](CO)N1C[C@H](C)[C@@H](CN(C)S(C)(=O)=O)Oc2ncc(-c3ccc(F)cc3)cc2C1=O	1	-13	-4.3
O=S(=O)(NCC[C@H]1CC[C@H](NS(=O)(=O)c2cccc(F)c2)[C@@H](CO)O1)c1cccc(F)c1	-6	8	7.0
Cc1noc(C)c1S(=O)(=O)Nc1ccc2c(c1)C(=O)N([C@@H](C)CO)C[C@@H](C)[C@H](CN(C)C(=O)NC(C)C)OCCCC[C@H](C)O2	1	6	0.0
COc1ccccc1CNC(=O)C[C@H]1CC[C@H]2[C@@H](COC[C@@H](O)CN2C(=O)Nc2ccc(C(F)(F)F)cc2)O1	-54	-81	-15
C[C@H](CO)N1C[C@H](C)[C@H](CN(C)Cc2ccc(C(=O)O)cc2)Oc2ncc(-c3ccccc3)cc2C1=O	0	10	-2.3
C[C@@H]1CCCCO[C@H](CN(C)Cc2ccc3c(c2)OCO3)[C@H](C)CN([C@@H](C)CO)C(=O)c2cc(NC(=O)CCCN(C)C)ccc2O1	3	2	-0.8
COc1ccc2c3c(n(C)c2c1)[C@H](CO)NCC31CCN(C(=O)Nc2ccc(F)cc2F)CC1	0	14	2.4
CO[C@H](CN(C)S(=O)(=O)c1cccc(Cl)c1)[C@@H](C)CN([C@@H](C)CO)S(=O)(=O)c1ccc(Cl)cc1	-1	-24	5.8
O=C(c1ccccc1F)N1CC[C@@H]2[C@H](CO)Nc3ccc(-c4ccc(F)cc4)cc3[C@@H]21	-36	-65	6.6
C[C@H]1CN([C@@H](C)CO)C(=O)c2cccc(NC(=O)Nc3ccccc3)c2O[C@@H]1CN(C)Cc1ccc(Oc2ccccc2)cc1	-1	11	0.6
CN(C)Cc1cn(CC[C@H]2CC[C@@H](N)[C@H](CO)O2)nn1	3	5	-1.8
C[C@H](CO)N1C[C@H](C)[C@@H](CN(C)C(=O)c2cnccn2)Oc2ncc(Br)cc2C1=O	6&2	15&6	-1.6&-3.8
Cc1ccc(C=NNC(=O)C(=O)Nc2ccc(Cl)c([N+](=O)[O-])c2)cc1	-2	1	-3.5
Cc1noc(C)c1NC(=O)NCC[C@@H]1CC[C@H](NC(=O)Cc2cccnc2)[C@H](CO)O1	2	7	-0.8
CCNC(=O)C[C@@H]1CC[C@H]2[C@H](COc3ccc(NC(=O)NC(C)C)cc3C(=O)N2C)O1	1	3	-1.8
COc1ccccc1-c1cccc2c3c([nH]c12)[C@@H]1C[C@H]2[C@@H](C(=O)N1CC3)[C@H](C)ON2C	-21	-25	-2.7
C[C@H]1CN([C@@H](C)CO)C(=O)c2cc(NC(=O)C3CCCCC3)ccc2O[C@H]1CN(C)S(=O)(=O)c1ccc(Cl)cc1	-6	1	2.8
Brc1ccc(CN2CCN(c3ncc(Cc4ccccc4)cn3)CC2)cc1	-24	-24	-1.1
CO[C@@H](CN(C)C(=O)c1cnccn1)[C@H](C)CN([C@@H](C)CO)S(=O)(=O)c1ccc(C)cc1	0	14	-2.1
C[C@H]1CN([C@@H](C)CO)C(=O)c2cc(NC(=O)c3ccncc3)ccc2O[C@H]1CN(C)Cc1ccc(Oc2ccccc2)cc1	1	-17	13
C[C@@H]1CN([C@@H](C)CO)C(=O)c2cc(NS(=O)(=O)c3ccc(Cl)cc3)ccc2O[C@@H]1CN(C)C(=O)Nc1ccc2c(c1)OCO2	-3	-11	0.2
C[C@@H]1CN([C@@H](C)CO)C(=O)c2cc(-c3cncnc3)cnc2O[C@@H]1CN(C)C(=O)c1cccc(F)c1	2	5	-0.4
C[C@H]1CN([C@@H](C)CO)C(=O)c2cc(N(C)C)ccc2O[C@@H]1CN(C)S(C)(=O)=O	4	12	-1.0

Reprinted at random: 2 compounds from above, in no set order.
SMILES	Ecoli rRNA inh	Ecoli rRNA inh OD600	Ecoli rRNA inh RFP
CCNC(=O)C[C@@H]1CC[C@H]2[C@H](COc3ccc(NC(=O)NC(C)C)cc3C(=O)N2C)O1	1	3	-1.8
Cc1ccc(C=NNC(=O)C(=O)Nc2ccc(Cl)c([N+](=O)[O-])c2)cc1	-2	1	-3.5

Among those listed so far, these have a nitro group on carbon:
SMILES	Ecoli rRNA inh	Ecoli rRNA inh OD600	Ecoli rRNA inh RFP
CC(C)[C@@H](C)/C=C/[C@@H](C)[C@H]1CC[C@@H]2[C@]1(C)CCC1[C@]23C=C[C@]2(C[C@@H](O)CC[C@]12C)N(c1ccc([N+](=O)[O-])cn1)O3 (stereo partly specified)	15	20	-5.0
Cc1ccc(C=NNC(=O)C(=O)Nc2ccc(Cl)c([N+](=O)[O-])c2)cc1	-2	1	-3.5

(list continues)
SMILES	Ecoli rRNA inh	Ecoli rRNA inh OD600	Ecoli rRNA inh RFP
CCOC(=O)C1=C(C(=O)OCC)C2N(Cc3ccc(C#N)cc3)c3ccccc3[C@@]23C[C@@H](C(=O)OC)N(S(=O)(=O)c2ccc(OC)cc2)C3=N1 (stereo partly specified)	5	15	2.5
O=C(NCC[C@@H]1CC[C@@H](NC(=O)Nc2cc(F)ccc2F)[C@@H](CO)O1)Nc1ccc(F)cc1	-2	3	-2.1
C[C@@H]1CN([C@@H](C)CO)C(=O)c2cccc(NC(=O)C3CC3)c2O[C@H]1CN(C)CC1CCCCC1	-2	0	-2.1
COc1ccccc1CNc1nc2cc(-c3sccc3C)sc2c(=O)n1C	10	14	5.3
CC(C)C[C@H]1CN([C@@H](Cc2ccccc2)CN2CCC[C@H]2CN2C(=O)C(=O)NC[C@@H]2Cc2ccc(O)cc2)C(=O)C(=O)N1CC1CCCCC1	-37	-49	3.5
C[C@@H]1CC=CC[C@@H](c2ccccc2)NC(=O)[C@@H](Cc2ccccc2)N(C)C(=O)c2ccccc2O1 (mixture of isomers)	-4	-8	-1.0
O=C1OC2C(O)COC23OC(O)CCC13O (stereo unspecified)	6	12	-0.2
Cc1ccccc1S(=O)(=O)N1CC[C@@H]2[C@H](CO)Nc3ccc(-c4cccc(F)c4)cc3[C@@H]21	-2	-16	-1.6
Cc1ccc(S(=O)(=O)Nc2cccc3c2O[C@@H](CN(C)Cc2ccc(C(=O)Nc4ccccc4N)cc2)[C@H](C)CN([C@@H](C)CO)C3=O)cc1	-5	-5	-0.2
C[C@H]1CN([C@@H](C)CO)C(=O)Cc2cc(NC(=O)Cc3cn(C)c4ccccc34)ccc2O[C@@H]1CN(C)Cc1ccc(C(=O)O)cc1	-3	-3	0.3
O=C(C[C@@H]1C[C@H]2c3cc(NS(=O)(=O)c4ccccc4)ccc3O[C@H]2[C@@H](CO)O1)NC1CCCCC1	-3	-3	-3.2
CO[C@@H]1CC[C@H]2CCN(C)C(=O)[C@@H](C)CN(C)C(=O)c3cccc(C#N)c3OC[C@@H]1O2	4	-2	2.0
C[C@@H]1CN([C@@H](C)CO)C(=O)c2cc(NS(=O)(=O)c3ccc(F)cc3)ccc2O[C@@H]1CN(C)Cc1ccc(C(=O)Nc2ccccc2N)cc1	0	-5	-0.1
O=C(Cc1ccccc1)N1C[C@@H]2[C@H](c3ccccc31)[C@@H](CO)N2C(=O)C1CCCCC1	-3	6	-0.1
C[C@@H]1CN([C@H](C)CO)C(=O)Cc2cc(NC(=O)c3ccncc3)ccc2O[C@@H]1CN(C)S(=O)(=O)c1cccs1	-1	-3	4.1
CC1(C(=O)NS(=O)(=O)c2ccc(Cl)cc2)CCN1C(=O)Cc1ccsc1 (stereo unspecified)	5	-2	-2.4
COc1ccc(S(=O)(=O)N(C)C[C@H]2Oc3ccc(NS(C)(=O)=O)cc3CC(=O)N([C@H](C)CO)C[C@@H]2C)cc1	3	0	-0.2
CO[C@@H]1CN(C)C(=O)c2ccc(NC(=O)C3CC3)cc2OC[C@@H](C)N(CC2CC2)C[C@@H]1C	0	5	0.0
C[C@@H]1CN([C@H](C)CO)C(=O)c2cc(NS(=O)(=O)c3ccc(Cl)cc3)ccc2O[C@@H](C)CCCCO[C@@H]1CN(C)C(=O)CCC(F)(F)F	-1	-9	0.5
O=C(CN1CCOCC1)NCC[C@@H]1CC[C@H](NC(=O)c2ccccc2F)[C@@H](CO)O1	3	-5	-1.1
CN1C(=O)c2cc(NS(C)(=O)=O)ccc2OC[C@H]2O[C@@H](CC(=O)NCc3ccc(-c4ccccc4)cc3)CC[C@H]21	-9	-39	7.0
O=C(c1cnccn1)N1CC2(C1)[C@H](c1ccccc1)[C@@H](CO)N2C(=O)c1ccccc1	1	4	0.8
C[C@H](CO)N1C[C@H](C)[C@H](CN(C)C(=O)C2CC2)Oc2ncc(Br)cc2C1=O	6	16	-1.7
COCC(=O)Nc1ccc2c(c1)OC[C@@H](C)N(C(=O)CC1CC1)C[C@@H](C)[C@H](OC)CN(C)C2=O	3	1	1.0
COc1ccc2c3c(n(C)c2c1)[C@H](CO)N(C(=O)Cc1ccccn1)CC31CCN(C)CC1	5	10	-2.3
COc1ccccc1NC(=O)N[C@H]1CC[C@@H](CCNS(=O)(=O)c2ccc(F)cc2)O[C@@H]1CO	-1	-2	1.1
